NPYLR7 ag: activates Aedes aegypti NPYLR7 receptor. HEK293T NPYLR7/Galpha15, GCaMP6s calcium fluorescence. activation, % at 10 µM. actives 0.15% (n = 270,000); in the data active = activation above about 40%;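 note: 0% = vehicle and 100% = reference agonist at the receptor; some compounds past the cut are filed as inactive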
NPYLR7 ag max-min: recorded beside NPYLR7 ag, whose call it bears; activation, %; measured here: Max-Min RFU normalised activation; some inactives read as strong as hits;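 span of the calcium signal over five minutes; 0% = vehicle and 100% = native peptide agonist; compound fluorescence can raise it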
* marks the source's active call; other numbers are inactive results; & = joins results of further samples.

SMILES	NPYLR7 ag	NPYLR7 ag max-min
O=c1ccc(-c2ccc(Cl)cc2)nn1Cc1ccccc1F	9	3
CCS(=O)(=O)c1ccc(C(=O)N(Cc2ccccn2)c2nc3ccc(F)cc3s2)cc1	0	-2
CCC(CC)CC(=O)NC1C=CS(=O)(=O)C1 (stereo not given)	2	-12
O=C1CC(c2cccc3[nH]ccc23)c2c(n[nH]c2C2CCC2)N1 (stereo not given)	3	-1
O=C(NC1CC1)C1CCN(C2CCN(Cc3cc4c(cc3Cl)OCO4)CC2)CC1	2	1
COc1cc(-c2cnnc(NCCC3=CC[C@H]4C[C@@H]3C4(C)C)n2)cc(OC)c1OC	15	6
Cn1c(=O)c2c(nc(N3CCNCC3)n2Cc2ccccc2Cl)n(C)c1=O	1	17
COc1ccc(N2CCN(C(=O)c3ccc(Cl)cc3)C(C)C2=O)cc1 (stereo not given)	14	11
O=C(OCc1ccc(Cl)cc1)c1cc([N+](=O)[O-])cc([N+](=O)[O-])c1	4	8
Cc1cn2c3c(=O)n(CCCO)c(=O)n(C)c3nc2n1-c1ccccc1F	-9	-7
CCc1nc(C)sc1CNC(C)Cn1cncn1 (stereo not given)	-1	0
COc1cc(OC)cc(N2CCN(Cc3ccccc3C)C(C)C2=O)c1 (stereo not given)	-1	-1
CCOC1CC(NC(=O)CN2CCCNC2=O)C12CCCCC2 (stereo not given)	11	-2
CC(C)N(C(=O)Cn1c(=O)n(CCc2ccccc2)c(=O)c2ncccc21)C(C)C	-3	0
O=C(O)c1ccccc1C(=O)N1Cc2[nH]cnc2C[C@H]1c1nc(-c2ccncc2)no1	5	-3
Cc1ccccc1C1=NOC(CNCc2ccccc2Cl)C1 (stereo not given)	-3	-8
CC(C)c1ccc(-c2cc(C(=O)NCc3cccs3)c3ccccc3n2)cc1	23	14
COc1ccccc1CNC(=O)C1(C)CCN1C(=O)c1sccc1C (stereo not given)	15	13
O=C(OC1OCCOC1OC(=O)c1ccccc1F)c1ccccc1F (stereo not given)	8	2
Clc1cncc(Oc2ccc3c(C4CC4)noc3n2)c1	0	-3
CN(C)CCC1CCCCN1Cc1ccc(F)c(C(F)(F)F)c1 (stereo not given)	-5	-6
Cc1ccccc1OCc1nc(CNC2CC2)cs1	20	24
CC1(C(=O)NS(=O)(=O)c2cccc(C#N)c2)CCN1C(=O)C1CCCCC1 (stereo not given)	7	3
Nc1ncnc2c1ncn2C1CCCC1	10	-9
Cc1ccc(Cl)c(C(=O)Nc2ccc(CCNC(=O)NC(C)C)cc2)c1F	-1	-5

Reformatted with values under each structure: entries from further up
Value order – NPYLR7 ag	NPYLR7 ag max-min
Cc1cn2c3c(=O)n(CCCO)c(=O)n(C)c3nc2n1-c1ccccc1F
 : -9	-7
CCc1nc(C)sc1CNC(C)Cn1cncn1 (stereo not given)
 : -1	0
COc1cc(OC)cc(N2CCN(Cc3ccccc3C)C(C)C2=O)c1 (stereo not given)
 : -1	-1
CCOC1CC(NC(=O)CN2CCCNC2=O)C12CCCCC2 (stereo not given)
 : 11	-2
CC(C)N(C(=O)Cn1c(=O)n(CCc2ccccc2)c(=O)c2ncccc21)C(C)C
 : -3	0
O=C(O)c1ccccc1C(=O)N1Cc2[nH]cnc2C[C@H]1c1nc(-c2ccncc2)no1
 : 5	-3

More compounds.
SMILES	NPYLR7 ag	NPYLR7 ag max-min
O=C(CCCCl)Nc1nc(-c2ccc(F)cc2)cs1	1	-6
Cc1cc2c(n1-c1cccc(C(F)(F)F)c1)CCCC2=O	2	2
COc1ccc(CCNC(=O)c2c(-c3ccccc3Cl)noc2C)cc1	0	-1
COc1ccc(N2C=C[C@H](c3ccccc3)[C@@H](C(=O)c3ccccc3)S2(=O)=O)cc1	12	9
O=C(Nc1ccc(Oc2ccccc2F)cc1)C1CCN(CC2CCOC2)CC1 (stereo not given)	-2&7	-6&6
O=C(CC12CC3CC(CC(C3)C1)C2)NNC(=O)C1CC1	0	-1
Cc1ncccc1Oc1ncnc(N2CCC3(CCCO3)CC2)c1C	5	3
Cc1nc(Nc2ccc(NC(=O)Nc3ccc(Cl)cc3)cc2)cc(OC(C)C)n1	-6	-5
COc1ccc(-c2nc3scc(CCNC(=O)c4ccc(C(C)(C)C)cc4)n3n2)cc1	4	2
CCC1COCCN1C(=O)NCc1nccn1CCc1ccccc1 (stereo not given)	5	4
COc1cc2c(cc1O)C(c1cnc(-c3cccc(C)c3)nc1)CC(=O)N2 (stereo not given)	9	6
O=C(NCc1cccs1)c1nnn(-c2ccccc2)c1CSc1ncccn1	1	-2
CC(C)(C)c1cc2nc(-c3ccccc3)cc(C(=O)N3CCN(c4cccc(Cl)c4)CC3)n2n1	4&17	2&15
CC(=O)c1c(C)[nH]c(C(=O)C(C#N)=Cc2cccn2C)c1C	1	-4
Cc1cccc2[nH]c(CCN(C)C(=O)c3cccc(C4CCNC4)c3)nc12 (stereo not given)	0	-5
COCCN1C(=O)COCc2ccc(-c3cccc(O)c3)cc21	10	3
O=C(Cn1cnc2ccccc21)NCc1ccco1	2	1
CC(=NN1CCN(c2ccccc2)CC1)c1ccc(-c2ccccc2)cc1	-1	-6
CC(C)(C)n1nc(C(=O)Nc2nc(C3CC3)cs2)cc1C1CC1	2	-2
Cc1ccc(Cn2c(=O)c3c(nc4n3CCN4c3ccc(C)c(C)c3)n(C)c2=O)cc1	-5	-6
Cc1ccccc1C(C)NC(=O)c1c(C)oc(-n2cccc2)c1C#N (stereo not given)	8	5
CCOP(=O)(Cc1ccc(NC(=O)C(C)(c2ccccc2)c2ccccc2)cc1)OCC	-4	-7
Nc1ccccc1P(=O)(c1ccccc1)c1ccccc1	2	-1
CCOC(=O)N1c2cccc3c2[C@@H](C[C@H]1C(=O)NC)CN(Cc1ccc(OC)cc1)C3=O	-2	1
CC(C)Sc1nc(N2CCCC2)c2cnn(CCNC(=O)c3ccc(F)c(F)c3)c2n1	4	2

Later entries:
SMILES	NPYLR7 ag	NPYLR7 ag max-min
CN1CCC(CN2CCN(C(=O)CN(C)Cc3ccccc3)CC2)CC1	6	4
CC(=O)Oc1cccc(N2C(=O)C3CC=C(C)CC3C2=O)c1 (stereo not given)	-3	-7
COc1ccc(Br)c(C(=O)Nc2cc(C(=O)N3CCOCC3)ccc2N2CC3CC(C2)c2cccc(=O)n2C3)c1 (stereo not given)	-4	1
CCOCCCn1c(SCc2ccccc2CS(=O)(=O)c2ccccc2)nc2cc(C(=O)OCC)ccc21	-2	-12
O=C(O)c1ccc(C(=O)O)c2c1C(=O)c1ccccc1C2=O	1	-4
CN=c1sc(C(=O)NC)c(C)n1C	4	2
O=C(O)c1cn([C@H]2CCC[C@@H]2O)nn1	18&4	12&4
CC(C)CCNc1cc(C(C)C)nc2c(-c3ccccc3)cnn12	-1	-3
CC(C)Nc1nc(Cc2ccccc2)nc2cc(Cl)ccc12	13	5
CCn1nc(C)c(NC(=O)CN2CCCC2c2cc(C(C)C)on2)c1C (stereo not given)	16	8
Cc1oc(-c2cccc(C(F)(F)F)c2)nc1CN(C)Cc1nncn1C	1	-4
O=C(/C=C/c1ccccc1)NC1CCN(c2ccccc2C(=O)NCc2ccc(F)cc2)CC1	17	20
CC1=CC[C@@H]2CN(C(=O)C3CCN(C(=O)c4ccccn4)CC3)C[C@@H]2C1	2	2
Cc1cccc(NC(=O)N2CCc3ccccc3C2c2ccc(F)cc2)c1 (stereo not given)	17	6
CCOC(=O)c1sc(NC(=O)CSc2nnc(C)s2)c(C(=O)OCC)c1C	-4	-7
CCn1c(=NC(=O)c2ccc3ncsc3c2)sc2cc(C)ccc21	-6	-8
CCC(C)c1ccc(S(=O)(=O)NCc2ccc(F)cc2)cc1 (stereo not given)	0	22
Cc1ccc(CN(Cc2ccc(F)cc2)C(=O)CN(CC2CCCO2)S(=O)(=O)c2ccccc2)s1 (stereo not given)	10	7
O=C(NCCN1CCOCC1)c1cccc(Nc2c(Oc3ccc4c(c3)OCO4)cnn(-c3ccc(Cl)c(Cl)c3)c2=O)c1	15	19
O=C(NCc1ccccc1)c1coc(CN(Cc2cccc(Oc3ccccc3)c2)CC2CC2)n1	18	19
COc1ccc(C2CC(=O)C3C(=Nc4ccccc4NC3c3ccc(C)cc3)C2)cc1 (stereo not given)	-12	-19
Cc1sc2ncnc(N/N=C\c3cccnc3)c2c1C	0	4
CCOC(=O)c1cc2c(=O)n3cccc(C)c3nc2n(CCCOC(C)C)c1=NC(C)=O	1	0
CCOCCCN(Cc1nc(C(=O)OC)cs1)C(=O)Nc1ccc(C)cc1	-4	4
COc1ccc(CN(C)C(=O)c2ccc(OCC3CCCO3)cc2)cc1F (stereo not given)	1	-3

Entries of single compounds, looked up by structure. Order of values: NPYLR7 ag | NPYLR7 ag max-min
CCOCCCN(Cc1nc(C(=O)OC)cs1)C(=O)Nc1ccc(C)cc1 is listed with -4 | 4
CCOCCCn1c(SCc2ccccc2CS(=O)(=O)c2ccccc2)nc2cc(C(=O)OCC)ccc21 is listed with -2 | -12
O=C(O)c1ccc(C(=O)O)c2c1C(=O)c1ccccc1C2=O is listed with 1 | -4
CCC(C)c1ccc(S(=O)(=O)NCc2ccc(F)cc2)cc1 (stereo not given) is listed with 0 | 22
O=C(/C=C/c1ccccc1)NC1CCN(c2ccccc2C(=O)NCc2ccc(F)cc2)CC1 is listed with 17 | 20

Next part:
SMILES	NPYLR7 ag	NPYLR7 ag max-min
CN(C)c1ccc(C(=O)N2CCC(n3c(=O)oc4ccc(F)cc43)CC2)cc1	2	-3
COc1ccc(CC(=O)NNC(=O)c2ccc(S(=O)(=O)N3CCCC3)cc2)c(OC)c1OC	0	9
O=C(Oc1ccc2[nH]cc(CCN3C(=O)c4ccccc4C3=O)c2c1)c1ccc(Cl)cc1	1	1
O=C(Nc1ccc(N2CCN(C(=O)c3ccco3)CC2)cc1)c1ccc(Cl)c(Cl)c1	-8	-12
CCOC(=O)C1CCCN(CC(=O)N2N=C(c3ccc(F)cc3)CC2c2ccccc2C)C1 (stereo not given)	2	7
Cc1cc2c(cc1C(=O)N1CCC(Cc3cccc(C(N)=O)c3)C1)OCCO2 (stereo not given)	-6	-5
Cc1nn(CC(C)C)c2sc(C(=O)NCC3CC3)cc12	2	1
COc1ccc(CCNC(=O)c2ccccc2N2CCC(NC(=O)c3ccccc3OC)CC2)cc1OC	-2	11
COc1ccc(Cn2c(C(C)C)nc3c(c(=O)c4ccccc4n3C)c2=O)cc1	7	4
C=CCN(CC(=O)N1CCc2sccc2C1c1ccc(Cl)cc1Cl)C(=O)C1C[C@H]1c1ccccc1 (stereo not given in full)	23	18
OC1CN(CN2CCOCC2)c2nnc(-c3cnccn3)n2C1 (stereo not given)	-4	-7
CCCCNC(=O)c1ccc2nc(CC)c(N(CC)CC(=O)N(C)C)n2c1	-2	27
O=C(c1cccs1)N1CCC(c2nc(-c3ccc(C(F)(F)F)cc3)no2)CC1	4	-4
O=C(/C=C/c1ccccc1)O[C@H]1C[C@@H](O)[C@]2(O)C=CO[C@@H](O[C@@H]3O[C@H](CO)[C@@H](O)[C@H](O)[C@H]3O)[C@H]12	1	-7
O=C(Nc1ccc2c(c1)OCO2)N1CCCCC1CCn1cccn1 (stereo not given)	17	15
CN1CCCn2nc(C(=O)NCc3ccccc3Cn3cccn3)cc2C1	16	11
Cc1cn2c3c(=O)n(Cc4ccc(Br)cc4)c(=O)n(C)c3nc2n1CCCO	-7	-9
COc1ccc(NC(=O)C2CCN(C(=O)[C@@H]3CCCN3C(=O)COC3C[C@@H](C)CC[C@@H]3C(C)C)CC2)cc1 (stereo not given in full)	35	36
CCCCCN(Cc1cccn1Cc1cccc(Cl)c1)C(=O)Nc1ccc(C)cc1	16	25
CCC/C=C/c1cc(C(=O)NC2CC2)ccn1	20	4
COc1ccc(-n2nc(C)c(-c3ccccc3)c2NC(=O)CN(CC(C)C)C(=O)c2ccc(Cl)cc2Cl)cc1	7	12
O=C(CNC(=O)c1ccccc1)NCCN1C(=O)SC(=Cc2ccccc2Cl)C1=O	0	4
CCc1ncc(-c2c(-c3ccccc3)ncn2CC(=O)N2CCNCC2)cn1	5	5
CCCN(Cc1cc(NC(=O)NCC)ccc1N(C)C)C(=O)COC	29	26
CCOc1ccc(C(=O)NCc2cnc3c(C)cccn23)o1	5	2

Later entries.
SMILES	NPYLR7 ag	NPYLR7 ag max-min
OCc1ccc(-c2nccn2Cc2ccccc2-n2ccnc2)o1	9	6
Cc1ccc(C)c(Cn2c(=O)c3c(nc4[nH]c(C)cn43)n(C)c2=O)c1	-1	11
C/C(C=Cc1nc(C)c(C(=O)O)s1)=C/c1ccccc1	4	1
CCOC(=O)Cc1n[nH]c(=S)n1C	8	7
O=C(c1cc(F)cc(F)c1)N1CCOC(COc2cccc(C(F)(F)F)c2)C1 (stereo not given)	-7	-9
CCCCNC(=O)C1(C)CCCCN1C(=O)c1ccc(OC)c(C(F)(F)F)c1 (stereo not given)	5	5
CCOc1ccc(NC(=O)c2sccc2S(C)(=O)=O)cc1C	-3	-3
Cc1ccc(Cl)c(OC2CC3CCC(C2)N3C(=O)c2ccc(CSc3nc(C)cc(C)n3)cc2)c1 (stereo not given)	10	-4
COc1ccc(NC(=O)c2ccc(NC(C)C)nc2)cc1Cl	10	8
N#CCCN(CCC#N)Cn1nnc2ccccc21	5	4
Cc1ccc(S(=O)(=O)c2ccc(Cn3nc(C)c(C)c(C#N)c3=O)cc2)cc1	2	0
CN1C2=NC(=O)C(=Cc3ccc([N+](=O)[O-])s3)N2c2ccccc21	3	2
CCN(CC)CCNC(=O)[C@H]1Cc2c([nH]c3ccccc23)CN1	2	7
CCC(=O)N1CC(C)(C)SC12C(=O)Nc1ccc(OC)cc12 (stereo not given)	5	8
Cc1ccc(NC(=O)N(CCN2CCOCC2)CC(=O)N(CCc2ccccc2)Cc2ccco2)c(C)c1	-9	-8
Cn1c(CCC(=O)NCCC2=CCCCC2)nc2cc(S(=O)(=O)N3CCCCC3)ccc21	2	2
CC(=O)Nc1ncccc1OCc1cccc(Cl)c1	9	3
Cc1cc(Nc2ccncc2)n2nc(C)c(-c3ccccc3Cl)c2n1	-1	-4
COCCNC(=O)C1CCCN(C2CCN(C(=O)/C=C/c3ccccc3)CC2)C1 (stereo not given)	9	6
Cc1ccc(C=Nc2c(F)c(F)c(F)c(F)c2F)s1	-1	-2

Compound activity: PubChem BioAssay, Fisher Drug Discovery Resource Center

An excerpt; the hit share may differ from the screen's.
